High-throughput results (PubChem)
VDR inh = Inhibitors of the vitamin D receptor (VDR): qHTS; Vitamin D3 receptor (Homo sapiens), P11473; VDR-SRC2-3 peptide fluorescence polarization, 2 h; Potency, µM, for inactives: max response, negative = inhibition, most hits filed as inhibitors; 0.93% of 400,000 active; AID 504847, 2011; active = well fitted inhibition curve with a large enough effect; inconclusive = small, poorly fitted or top-dose-only effect, or another doubt; inactive = no such curve, though single readings can be large or run the other way; note: series mostly up to about 120 µM
Target sequence (P11473 whole entry, looked up): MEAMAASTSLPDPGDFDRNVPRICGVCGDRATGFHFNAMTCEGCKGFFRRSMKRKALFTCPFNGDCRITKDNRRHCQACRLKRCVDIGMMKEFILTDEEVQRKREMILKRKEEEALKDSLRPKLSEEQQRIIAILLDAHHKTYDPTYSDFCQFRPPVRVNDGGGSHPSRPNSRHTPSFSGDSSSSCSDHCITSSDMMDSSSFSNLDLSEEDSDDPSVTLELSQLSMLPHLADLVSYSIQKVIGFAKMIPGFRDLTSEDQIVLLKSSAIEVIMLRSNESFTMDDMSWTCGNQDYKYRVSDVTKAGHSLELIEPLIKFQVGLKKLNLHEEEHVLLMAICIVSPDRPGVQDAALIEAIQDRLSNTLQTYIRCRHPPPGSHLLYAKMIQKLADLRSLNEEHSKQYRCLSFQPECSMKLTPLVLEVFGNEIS
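The screen uses fluorescence polarization to detect compounds that interfere with recruitment of the SRC2-3 coactivator peptide to VDR; plates are read after 2 h at room temperature.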
Numbers without * were called inactive; ? = inconclusive; & = joins results of further samples; [ ] = dose if it differs, or a comment. % is set by controls: 0 for no effect and ±100 for the full control effect; potency is the fitted concentration of half-maximal effect.

SMILES	VDR inh
Cc1ccc(NC(=O)C2CCCN(c3ncnc4c3nc3n4CCCCC3)C2)nc1 (configuration not stated)	3.3%
O=C(CCc1nc2ccccc2c(=O)[nH]1)NCCN1C(=O)S/C(=C\c2ccc(Cl)cc2Cl)C1=O	-14.1%
Oc1ccc(-c2nnc(SCc3ccccc3)o2)cc1	-3.1%
CCN(CC)S(=O)(=O)c1ccc(NC(=O)Cn2c(=O)oc3ccccc32)cc1	-2.4%
NC(=O)CC(NC(=O)Cc1cccc2ccccc12)c1ccc(NC2CCCCCCC2)c([N+](=O)[O-])c1 (configuration not stated)	-12.1%
COc1ccc(NC(=O)C2CCCC2)cc1	-3.0%
C[C@H]1CN([C@@H](C)CO)C(=O)Cc2cc(NC(=O)Cc3cn(C)c4ccccc34)ccc2O[C@@H]1CN(C)S(=O)(=O)c1cn(C)cn1	-2.6%
COc1ccc(C(=O)/C=C/c2cccs2)c(OC(=O)N2CCOCC2)c1	-27.3%
NC(=O)C1CCN(C(=O)CN2CCc3ccccc32)CC1	2.8%
CCc1ccc2oc(-c3cc(NC(=O)c4cccnc4)cc(C)c3O)nc2c1	0.8%
O=C(CN1C(=O)NC2(CCc3ccccc32)C1=O)NCCc1ccccc1 (configuration not stated)	4.4%
O=C(CS(=O)c1ccc(C(F)(F)F)cc1[N+](=O)[O-])Oc1ccccc1 (configuration not stated)	0.2%
Cc1ccc(S(=O)(=O)c2cnc(SCC(=O)Nc3ccc4c(c3)OCCO4)[nH]c2=O)cc1C	-20.1%
Cc1ccc(-c2nc3ccccc3c(C(=O)NCc3cccs3)c2C)cc1	?
Cc1cccc(NC(=S)N2CCN(c3ccccn3)CC2)c1	5.4%
Cc1nn(CCCC(=O)N2CCN(c3ccc(F)cc3)CC2)c(C)c1[N+](=O)[O-]	-6.5%
CCCc1cc(C(=O)N/N=C/c2ccc(CC)s2)c2ccccc2n1	-0.2%
N#Cc1nc(-c2ccc(F)cc2)oc1NCc1ccco1	-11.0%
CCOC(=O)c1cnn(C)c1NC(=O)c1ccc([N+](=O)[O-])cc1	-7.1%
Cn1c(CN2CCOCC2)nnc1SCC(=O)Nc1cc(Cl)ccc1Cl	12.6%
Cn1c(CC(=O)Nc2ccccc2)nnc1SCC(=O)Nc1ccc(N2CCOCC2)cc1	-2.1%
O=c1c2c3c(sc2n(CCN2CCCCC2)c(=O)n1Cc1ccco1)CCCCC3	-11.2%
O=C(COC(=O)CN1C(=O)c2ccccc2C1=O)Nc1ccccc1	-10.1%
Cc1ccc(S(=O)(=O)N2[C@@H](c3ccc4c(c3)OCO4)C(C(=O)O)=C[C@H]2CC2CCCC2)cc1	-1.4%
COc1ccc2nc(C)cc(Nc3ccc(C(=O)O)cc3)c2c1	-4.2%

Some values from the list:
Reading of CCc1ccc2oc(-c3cc(NC(=O)c4cccnc4)cc(C)c3O)nc2c1 under VDR inh: 0.8%
Reading of CCN(CC)S(=O)(=O)c1ccc(NC(=O)Cn2c(=O)oc3ccccc32)cc1 under VDR inh: -2.4%
Reading of Cc1ccc(S(=O)(=O)N2[C@@H](c3ccc4c(c3)OCO4)C(C(=O)O)=C[C@H]2CC2CCCC2)cc1 under VDR inh: -1.4%
Reading of Cc1nn(CCCC(=O)N2CCN(c3ccc(F)cc3)CC2)c(C)c1[N+](=O)[O-] under VDR inh: -6.5%

Next compounds.
SMILES	VDR inh
CSc1cccc(NS(=O)(=O)c2ccc3c(c2)NC(=O)C(C)C(=O)N3)c1 (configuration not stated)	-5.0%
COCc1c(C(=O)NCCOc2ccc(Cl)cc2)oc2ccccc12	?
CCOC(=O)[C@H](CCc1ccccc1)N[C@@H](C)C(=O)N1[C@H](C(=O)O)C[C@H]2CCC[C@@H]21	0.2%
Nc1nc(NCCc2ccc(O)cc2)nc2nc(-c3ccco3)nn12	?
N#C/C(=C\Nc1ccc2c(c1)OCCO2)c1nc2ccccc2[nH]1	-3.2%
COc1ccc(CNC(=O)C(=O)NCC(c2ccco2)S(=O)(=O)c2ccc(C)cc2)cc1 (configuration not stated)	2.4%
COC(=O)/C(C#N)=C/c1ccc(-c2ccc(S(N)(=O)=O)cc2)o1	2.8%
CC1=CC(=C(C#N)c2nc3ccccc3s2)C=C(C)N1CC1CCCO1 (configuration not stated)	4.5%
CN(CC(=O)Nc1ccccc1Cl)C(=O)COC(=O)c1cc([N+](=O)[O-])ccc1N1CCOCC1	-26.3%
CCOc1ccc(C(=O)NCCc2sc(-c3ccc(F)cc3)nc2C)cc1	6.3%
OC(COCc1ccccc1)COCc1ccccc1	1.8%
CN(C(=O)c1ccc(NC(=O)Cc2ccc(NC(=O)C3CCCN(S(=O)(=O)c4cccc([N+](=O)[O-])c4)C3)cc2)cc1)C1CCCC1 (configuration not stated)	-13.7%
COc1cccc(CNc2nc3c(-c4cccc(C)c4)nnn3c3ccccc23)c1	-17.2%
O=C(NC1CCCC1)c1cccc(S(=O)(=O)N2CCCC2)c1	43.6%[activator]
CC(C)(C)C(=O)NC(C(N)=O)=C(Cl)Cl	-2.3%
c1cncc(-c2nc3ccccc3s2)c1	-6.4%
Cc1cc(=O)oc2c(N)c(O)ccc12	-9.3%
CCOC(=O)C1CCN(C(=O)c2ccc3c(c2)N=C(CC)c2cc(C)ccc2S3)CC1	-8.2%
O=C(NCc1ccccc1)c1ccc(S(=O)(=O)N2CCCC2)cc1	-0.1%
COC(=O)Cn1c(C)nc2ccccc21	2.9%
COc1cccc(C2C(=O)N(C3CCCCC3)CC(=O)N2CCc2ccc(OC)c(OC)c2)c1 (configuration not stated)	9.9%
O=C(CC(C(=O)O)c1cccc(Cl)c1)c1ccccc1 (configuration not stated)	-0.6%
S=c1[nH]nc(-c2cccnc2)n1C1CCCCC1	-0.3%
Cc1ccc(C(=O)COC(=O)CN2C(=O)C3C4CCC(C4)C3C2=O)cc1C (configuration not stated)	-15.3%
CN(C)CCCCOc1ccccc1-c1ccccc1	-7.6%

Sorted by value in VDR inh (ascending): four of the compounds above.
SMILES	VDR inh
COc1cccc(CNc2nc3c(-c4cccc(C)c4)nnn3c3ccccc23)c1	-17.2%
CN(C)CCCCOc1ccccc1-c1ccccc1	-7.6%
S=c1[nH]nc(-c2cccnc2)n1C1CCCCC1	-0.3%
O=C(NCc1ccccc1)c1ccc(S(=O)(=O)N2CCCC2)cc1	-0.1%

The listing continues.
SMILES	VDR inh
COc1ccc(C2N(Cc3ccccc3)CC(=O)N2/N=C(\C)c2ccccc2)cc1 (configuration not stated)	-16.8%
O=C(Nc1ccc([N+](=O)[O-])cc1)c1ccccc1	-4.0%
Cc1ccc(S(=O)(=O)N2CCN(C(=O)CC(C)n3cncn3)CC2)cc1 (configuration not stated)	-4.6%
COc1ccccc1NS(=O)(=O)c1ccc2oc(=S)[nH]c2c1	8.4%
CC(C)c1ccc(NC(=O)C2CCCN2S(=O)(=O)c2ccccc2F)cc1 (configuration not stated)	10.5%
COc1cccc(NC(=O)Cn2cc(S(=O)(=O)N3CCCC3)c(S(=O)(=O)N3CCCC3)c2)c1	6.7%
COc1ccc(-c2nc3ccccn3c2/N=C/c2ccc(OC)c(OC)c2)cc1O	-20.7%
CCCC(c1nnnn1C(C)(C)CC)N(CCCO)Cc1cc2cc(C)cc(C)c2[nH]c1=O (configuration not stated)	-3.3%
CCN(CC)c1ccc(C(=O)NNC(=O)CCc2nc3ccccc3c(=O)[nH]2)cc1	1.0%
CCCCNC(=O)CSc1nnc(-c2c[nH]c3ccccc23)n1CC1CCCO1 (configuration not stated)	-17.5%
Cc1ccc(C)c(Cn2c(=O)c3c(nc4n3CCN4c3ccccc3)n(C)c2=O)c1	1.5%
Cc1cc(=O)n2nc(N3CCCC(C(=O)NC(C)c4ccccc4)C3)sc2n1 (configuration not stated)	1.5%
COc1cccc(-n2c(C)nc3c(cnn3-c3ccc(Cl)cc3)c2=O)c1	-4.1%
Cc1ccc2c(c1)C(=O)C(=O)N2CCOc1ccccc1	79.4µM*
O=C(Oc1cc(=O)oc2ccccc12)c1cccnc1Cl	1.6%
CCN(CC)S(=O)(=O)c1ccc2oc(C(=O)N3CCCCCC3)c(C)c2c1	11.1%
CC(=O)c1ccc(-c2ccc(-c3cc(=O)oc4c(C(C)C)ccc(C)c34)cc2)cc1	-6.3%&5.7%
O=C(CN1CCN(Cc2ccccc2)CC1)Nc1nc2ccccc2s1	?
Cc1cccc(NC(=O)[C@@H]2CCCN2C(=O)OC(C)(C)C)c1C	-12.1%
CCOc1ccccc1Nc1nnc(SCC(=O)NC(Cc2c[nH]c3ccccc23)C(=O)O)s1 (configuration not stated)	-29.9%
CC(C)OCCCn1c(=N)c(C(N)=S)cc2c(=O)n3ccccc3nc21	?
COc1cc(SC)ccc1C(=O)Nc1cc(C)c(OCC(=O)N2CCOCC2)c(C)c1	3.6%
COc1ccccc1C(=O)COC(=O)c1cc(S(=O)(=O)N2CCCCC2)ccc1N1CCOCC1	-9.5%
O=C(COC(=O)CN1C(=O)NC2(CCCC2)C1=O)Nc1ccc(C(F)(F)F)cc1[N+](=O)[O-]	-0.9%
NC(=O)CSc1nnnn1-c1cccc(Cl)c1	-15.2%

The last 3 entries of the part above lead into the next:
SMILES	VDR inh
COc1ccccc1C(=O)COC(=O)c1cc(S(=O)(=O)N2CCCCC2)ccc1N1CCOCC1	-9.5%
O=C(COC(=O)CN1C(=O)NC2(CCCC2)C1=O)Nc1ccc(C(F)(F)F)cc1[N+](=O)[O-]	-0.9%
NC(=O)CSc1nnnn1-c1cccc(Cl)c1	-15.2%
COc1ccc(C(=O)OCC(=O)c2ccc(CNC(C)=O)s2)cc1	-21.0%
CN1C(=O)/C(=C2\SC(N3CCCCCC3)=NC2=O)c2ccccc21	1.0%
CCOc1ccc(N(C(C)C(=O)N2CCCCCC2)S(C)(=O)=O)cc1 (configuration not stated)	-6.4%
CC1(c2ccc(Cl)cc2)NC(=O)N(CC(=O)NCc2ccc(F)cc2)C1=O (configuration not stated)	-10.9%
COc1cc(C2C3=C(CCCC3=O)Nc3c2c(C)nn3-c2cccc(C)c2)cc(OC)c1O (configuration not stated)	1.8%
CCn1cnc2c1c(=O)n(CC(=O)NCC(F)(F)F)c(=O)n2Cc1ccccc1	5.4%
Cc1cccc(N2CCN(C(=O)c3nn(C)c4c3CS(=O)(=O)c3ccccc3-4)CC2C)c1 (configuration not stated)	-1.6%&7.0%
CSc1nc(Oc2ccc(F)cc2)c2ccccc2n1	-2.6%
O=C1NC(c2ccccc2)=C(c2nc3ccccc3s2)C(c2ccc(F)cc2)N1 (configuration not stated)	21.0%
COc1ccccc1NS(=O)(=O)c1cccc(C(=O)NCC(c2ccco2)N(C)C)c1 (configuration not stated)	12.4%
CSCCC(NC(=O)COc1ccccc1)C(=O)N(C)Cc1ccc(F)cc1 (configuration not stated)	-20.0%
CC1CCCC(C(=O)OCc2ccccc2)N1 (configuration not stated)	4.6%
CC/C(Cc1ccccc1)=N/NC(=O)CCn1nnc2ccccc21	-7.5%
Cc1c(C(C)C[C@H](C)O)oc(=O)c2c1Oc1c(C)c(C(C)C[C@H](C)O)oc(=O)c1C2 (some centres not stated)	7.0%
CC1CCCC(C)N1C(=O)CSc1ccc(-c2ccc3c(c2)OCCO3)nn1 (configuration not stated)	-16.5%
COc1ccc(Cl)cc1NC(=O)CNc1ccc(F)cc1C	-15.7%
CCc1ccc(NC(=O)CSc2nc3ccccc3nc2Cc2ccc(C)cc2)cc1	8.9%
Cc1nn(-c2ccccc2[N+](=O)[O-])c(=O)c2ccccc12	7.0%
CC(=O)c1c(C)oc2ccc(N(C(=O)c3ccncc3)S(=O)(=O)c3ccc(C)cc3C)cc12	-7.9%
CCCNC(=O)CS(=O)(=O)c1ccccc1	-6.9%
COc1ccc(-c2nc3ccccc3n2OC(C)C(=O)O)cc1 (configuration not stated)	-19.6%
CCOc1ccc(C(=O)Nc2c(C(N)=O)oc3ccccc23)cc1	11.4%
Cc1ccc(Cn2ccc(NC(=O)c3cc(-c4cccs4)on3)n2)cc1	5.0%
O=c1c2cc(N3CCOCC3)ccc2[nH]c(=S)n1CCN1CCCC1	11.8%
C#CCn1c(=NC(=O)c2cc(Cl)sc2Cl)sc2cc(S(N)(=O)=O)ccc21	-7.1%

By substructure, the entries above with a tert-butyl group.
SMILES	VDR inh
CC(C)(C)C(=O)NC(C(N)=O)=C(Cl)Cl	-2.3%
Cc1cccc(NC(=O)[C@@H]2CCCN2C(=O)OC(C)(C)C)c1C	-12.1%

Next part
SMILES	VDR inh
COc1ccc(NC(=O)C(=O)NCCN2CCN(C(=O)c3cccs3)CC2)cc1	-4.6%
CCCc1nc2ccc(NC(=O)c3ccco3)cc2c(=O)n1Cc1ccc(Cl)cc1	-0.2%
Cc1cccn2c(=O)c(/C=C(\C#N)S(=O)(=O)c3ccccc3)c(N3CCN(c4ccccc4)CC3)nc12	15.2%
N#Cc1cnn2c(-c3ccc(Cl)cc3Cl)ccnc12	22.3%
O=Cc1ccc(OCC(=O)Nc2ccccc2C(F)(F)F)cc1	-9.8%
O=C(CSc1nnc(C2CC2)n1C1CC1)c1cccs1	-8.8%
COc1ccc(-c2cc(C(=O)NCCc3ccccc3)no2)cc1OC	5.8%
O=C(c1cnccn1)N1CCC[C@@]2(CCN(Cc3ccncc3)C2)C1	-22.1%
CCC(C)(C)NC(=O)c1ccc2c(c1)N(CC(=O)NC1CCCC1)C(=O)C(C)(C)O2	-12.5%
Cn1c(=O)c2c(SCC(=O)N3CCCc4ccccc43)nc(C3CC3)nc2n(C)c1=O	-22.4%
CC(=NCc1ccccc1)C1=C(O)COC1=O	-6.2%
N#Cc1c(NCCCO)nc(-c2ccccc2)c2c1CCCC2	2.1%

These rows are one share of the data. The share of hits here may be higher or lower than overall.
